Assay outcomes as filed in PubChem.
TRPV1 potentiator – human TRPV1 potentiation; potentiation, % at 8.33 µM; 0.02% of 320,000 active; AID 540277; TRPV1-expressing cells, Fluo-8 calcium influx, capsaicin EC20 potentiation; host cell line not named in the record; control for the full effect not named in the record; active means potentiation above 80%; inconclusive means 30% to 80%; inactive means below 30%; note: 0% is about no effect
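TRPV1-expressing cells were cultured overnight at 35.5C and loaded with Fluo-8 calcium dye for 40 to 90 min at room temperature. After a 10 s baseline, compound was added and calcium influx was read kinetically for 3 min (ex 480/em 520 nm).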
TRPML1 blocker – human mucolipin-1 channel inhibition; Q9GZU1; TRPML1-inducible cells, Ca2+ dye fluorescence, FDSS; stronger effect = lower value; inhibition of EC80 agonist-evoked calcium signal; activity change, negative = inhibition, % (no concentration beside the values); 0.02% of 390,000 active; in the data active means activity change below about -50%; inconclusive means about -30% to -50%; inactive means above about -30%;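 note: stimulus is agonist 54-4 at its EC80 concentration; % is set by controls: 0 for no effect and ±100 for the full control effect; compound concentration not given in the record; the text of the record puts the active cut at -80%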
Target sequence (Q9GZU1 whole entry, looked up): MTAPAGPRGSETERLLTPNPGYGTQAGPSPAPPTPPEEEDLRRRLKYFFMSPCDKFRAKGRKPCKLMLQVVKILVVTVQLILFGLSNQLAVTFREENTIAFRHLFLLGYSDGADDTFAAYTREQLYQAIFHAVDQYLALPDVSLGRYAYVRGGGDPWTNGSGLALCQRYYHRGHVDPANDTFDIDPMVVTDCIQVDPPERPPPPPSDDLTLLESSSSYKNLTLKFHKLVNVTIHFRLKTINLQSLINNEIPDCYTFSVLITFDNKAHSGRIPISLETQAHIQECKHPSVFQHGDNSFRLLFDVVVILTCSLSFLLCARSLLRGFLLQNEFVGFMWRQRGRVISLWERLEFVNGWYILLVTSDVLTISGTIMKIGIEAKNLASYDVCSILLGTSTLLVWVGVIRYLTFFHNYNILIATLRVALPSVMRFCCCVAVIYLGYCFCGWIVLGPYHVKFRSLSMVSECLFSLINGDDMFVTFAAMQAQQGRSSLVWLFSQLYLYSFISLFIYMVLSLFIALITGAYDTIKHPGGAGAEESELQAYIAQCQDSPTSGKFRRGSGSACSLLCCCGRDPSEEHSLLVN
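TRPML1-DL cells, Tet-induced overnight (~16 h, 37 °C) at 1,500 cells/well, were loaded with Ca8 no-wash dye plus quencher for 45-90 min at room temperature. Compounds were pinned during FDSS kinetic reading; agonist 54-4 at EC80 (4 uM final) then added.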
ClpP mod – qHTS Assay for Activators of ClpP. ATP-dependent Clp protease proteolytic subunit (Bacillus subtilis (strain 168)), P80244. purified B. subtilis ClpP, FRET peptide cleavage, 20 min. Potency, µM (series often up to 57.5 µM), inactives show at the top dose activity change, negative = active. 1.9% of 340,000 active; active = well fitted falling curve with a large enough effect; inconclusive = small, poorly fitted or top-dose-only effect; inactive = no such curve, though single readings can be large or run the other way; note: potency is the fitted concentration of half-maximal effect; the source files actives as falling curves though it sought activators and does not explain the sign; nearly all actives have a fitted effect of over 65% in size; many hits overshoot -100%
Target sequence (P80244 whole entry, looked up): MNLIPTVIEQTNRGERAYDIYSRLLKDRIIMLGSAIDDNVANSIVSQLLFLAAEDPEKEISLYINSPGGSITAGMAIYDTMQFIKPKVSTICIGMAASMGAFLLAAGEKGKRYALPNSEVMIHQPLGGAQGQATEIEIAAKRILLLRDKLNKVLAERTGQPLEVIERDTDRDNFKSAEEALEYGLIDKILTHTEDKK
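FRET quenching reversal measured ClpP activation: 10 microg/mL B. subtilis ClpP at pH 8 with the FRET-FV decapeptide, read at 430 nm after 320 nm excitation. The 20-min minus 0-min signal was scaled between DMSO/no-enzyme wells and ADEP (5.8 microM final).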
gsp antag – antagonists of gsp mutant (McCune-Albright syndrome); gsp-mutant cells, cAMP HTRF, 30 min; control for the full effect not named in the record; Potency, µM (top dose mostly 76.9 µM), for inactives: at the highest dose activity change, negative = inhibition, most hits filed as inhibitors; 0.4% of 340,000 active; AID 624288; active = falling curve of any shape with a large fitted effect; inconclusive = falling curve, mostly with a smaller effect; inactive = flat or rising curve; cell line not stated here;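 note: intracellular cAMP measured with PDE inhibitor Ro 20-1724 present during compound exposure; potency is the fitted concentration of half-maximal effect; % is set by controls: 0 for no effect and ±100 for the full control effect; nearly all actives have a fitted effect of over 65% in size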
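HTRF cAMP measurement after 30 min RT detection following 30 min, 37C compound treatment alongside […] (added as 300 uM solution) in G418-selected cells seeded at 2000/well and grown 16–24 h.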
gsp ag – agonists of gsp mutant (McCune-Albright syndrome) | gsp mutant cells, cAMP HTRF, 30 min; control for the full effect not named in the record | Potency, µM (doses to about 76.9 µM), inactives show at the top dose activation (cAMP increase), actives largely listed as activators | 0.13% of 340,000 active; active = well fitted activation curve with a large enough effect; inconclusive = small, poorly fitted or top-dose-only effect, or another doubt; inactive = no such curve, though single readings can be large or run the other way; cell line not stated here;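 note: phosphodiesterase inhibitor Ro 20-1724 added with compounds to block cAMP breakdown; potency is the fitted concentration of half-maximal effect; nearly all actives have a fitted effect of over 60% in size; about a fifth of the inactives were tested at one dose only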
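Cells stably selected in G418 were plated at 2000/well, grown 16-24 hr, then given compounds in DMSO with the PDE inhibitor […] (300 uM solution added) for 30 min at 37C; cAMP was read by HTRF.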
Sfp inh – blocks B. subtilis Sfp PPTase activity; Biochemical Sfp PPTase activity, qHTS; Potency, µM, for the others: max response, negative = inhibition, usual class: inhibitors; Q9F4F7; 3.5% of 310,000 active; active = well fitted inhibition curve with a large enough effect; inconclusive = small, poorly fitted or top-dose-only effect, or another doubt; inactive = no such curve, though single readings can be large or run the other way;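 note: the enzyme is Sfp with the accession as filed and its product quenches rhodamine fluorescence; potency is the fitted concentration of half-maximal effect; 0% = enzyme reaction without inhibitor and -100% = no enzyme wells; top concentration of the series not given in the record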
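Fluorescence-quenching assay with 15 nM Sfp, 5 uM rhodamine-CoA and 12.5 uM BHQ-2-labelled ybbR peptide in pH 7.6 Hepes/MgCl2 buffer. Enzyme was pre-incubated with compound for 15 min at room temperature. Rate was taken from the 30-min fluorescence change (525/598 nm).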
Menin-MLL FL inh – menin-MLL binding inhibition, fluorescein peptide; Fluorescence polarization, fluorescein-MLL peptide displacement from menin; FP activity change, % at 61.4 µM; 290,000 tested, under 10 active; inconclusive = falling polarisation curve, or a change in total fluorescence; inactive = total fluorescence flat and polarisation flat or rising; no compound was filed as active; the % refers to the polarisation; negative = inhibition;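 note: % of control where 0% means no effect; inhibitors lower the polarisation; unlabelled MLL peptide was the positive control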
Numbers without * were called inactive; ? = inconclusive; . = not tested or not shown; & = joins results of further samples; [ ] = another dose, or the depositor's remark.

structure | Sfp inh | gsp antag | TRPML1 blocker | TRPV1 potentiator | Menin-MLL FL inh | ClpP mod | gsp ag
COC(=O)c1cc(S(=O)(=O)N2CCCCCC2)c[nH]1 | 13.8% | 6.5% | -6.1 | 0.7 | -0.2 | -3.1% | 0.3%
O=C(COc1ccc(S(=O)(=O)N2CCOCC2)cc1Cl)NCc1ccccn1 | 7.5% | 5.9% | 1.1 | 14.4 | 0.2 | . | 15.6%
COc1cc(/C=C/C(=O)C2C(=O)C=C(C)OC2=O)cc(OC)c1O (stereo not given) | -26.3% | -23.2% | 18.0 | -0.5 | ? | -7.0% | 0.5%
CC1CCCN(S(=O)(=O)c2csc(C(N)=O)c2)C1 (stereo not given) | 17.5% | 4.0% | -1.6 | -0.2 | 4.1 | -1.8% | -2.0%
CS(=O)(=O)N1CCCC(C(=O)Nc2c(F)cccc2F)C1 (stereo not given) | 13.2% | 12.3% | -1.8 | 3.5 | -1.3 | -3.0% | 0.0%[15.4 µM]
Cc1ccc(S(=O)(=O)N2CC(C(=O)O)Oc3ccccc32)cc1 (stereo not given) | 11.7% | -7.6% | 34.7 | 25.0 | -3.2 | . | 8.4%[15.4 µM]
c1ccc(-c2nnc3sc(-c4ccncc4)nn23)cc1 | -19.4% | 1.2% | -6.1 | 3.7 | -0.3 | -7.4% | 10.3%
Cc1csc(CN(C)C(=O)CC2C(=O)NCCN2Cc2ccc(Cl)c(F)c2)n1 (stereo not given) | 1.3% | 6.8% | -9.2 | ? | -5.3 | -5.2% | -3.1%
CCn1c(C)cc(/C=C2/SC(=O)N(CC(=O)N3CCCC3)C2=O)c1C | 7.3% | 9.0% | -5.1 | 9.2 | . | . | -1.7%[15.4 µM]
Cc1cc(=O)[nH]c(SCC(=O)Nc2nc(-c3ccccc3)cs2)n1 | -6.1% | -6.0% | -10.8 | -4.5 | 14.7 | -1.4% | -1.3%
CCCCNC(=S)NNC(=O)c1nn(C)cc1Cl | 16.7% | 13.2% | 30.0 | 5.8 | 0.5 | 0.0% | 0.1%
O=C(C1CCN(S(=O)(=O)c2cccc3cccnc23)CC1)N1CCN(c2ccccc2)CC1 | 10.5% | -9.1% | 2.4 | -13.3 | 0.9 | 0.4% | 6.8%
Cc1sc2ncnc(N3CCC(C(=O)Nc4nc5ccc(Cl)cc5s4)CC3)c2c1C | . | -7.3% | 8.4 | 4.8 | . | -6.0% | -2.8%
CC1(O)C(=O)c2ccccc2N(c2ccccc2)C1=O (stereo not given) | 16.9% | 19.0% | 26.4 | 4.3 | 1.4 | -3.1% | -20.4%
COc1ccc(Oc2cc(C(F)(F)F)cnc2C(N)=O)cc1 | 27.5% | 3.2% | -11.7 | 2.8 | -0.5 | -0.2% | 11.9%
COC(=O)C1=C(O)CSC1=Nc1cccc(C(F)(F)F)c1 | 16.5% | -10.5% | -8.1 | 0.7 | 5.6 | -2.5% | -26.1%
O=C(CCCn1cncn1)N1CCCC(N2CCN(c3ccccc3F)CC2)C1 (stereo not given) | 8.6% | 22.4% | -7.1 | -8.5 | . | 0.2% | 14.3%
CCOc1ccc(OCCSc2nc3ccccc3o2)cc1 | ? | -1.5% | -16.3 | 9.1 | ? | -0.5% | -2.0%
O=C(Nc1ccccc1C(=O)O)c1ncn[nH]1 | 44.7µM* | 2.4% | -5.3 | -12.2 | 1.7 | 28.2µM* | 5.5%
C=CCOc1c(Cl)cc(CNCCCN2CCOCC2)cc1OC | 4.2% | -1.1% | -6.0 | -11.2 | -1.0 | . | 25.6%
CN(c1ccccc1)S(=O)(=O)c1ccc(NC(=O)c2ccco2)cc1 | 13.7% | -3.5% | 31.4 | -11.8 | -0.6 | . | 7.3%
CCOc1ccc(/C=N/OCC(=O)Nc2ccc3c(c2)OCO3)cc1 | 10.3% | -10.8% | 35.0 | 2.6 | -3.9 | -0.3% | -10.2%
COc1ccc(-c2noc(-c3ccccc3-c3ccccc3)n2)cc1 | -5.6% | 2.7% | 4.2 | -9.1 | 7.1 | -8.4% | -15.3%
O=C(CNC(=O)c1ccccc1F)NC1CCN(Cc2ccccc2)CC1 | 15.3% | 9.6% | 23.3 | 1.0 | -1.2 | . | ?
CCn1c(CNC(=O)c2cc(OC)c(OC)c(OC)c2)cc2cc(C)ccc21 | -13.9% | -9.3% | 6.6 | 3.0 | 2.1 | 0.6% | -4.7%[15.4 µM]
COc1ccccc1CN(C)C(=O)c1cc(S(=O)(=O)N2CCCCCC2)ccc1OC | . | . | -1.1 | . | . | 0.7% | -125.7%[inhibitor]
O=C(c1ccc(Cl)cc1)c1ccc(OCC(O)CN2CCCCC2)cc1 (stereo not given) | 2.7% | -0.5% | -14.7 | 1.6 | -1.9 | 1.5% | -15.7%
N/C(=N\OC(=O)COc1ccc(Cl)cc1Cl)c1cccnc1 | 14.9% | 7.4% | 26.2 | 14.7 | -3.1 | -20.3% | 8.2%
C[C@@H]1CCCCO[C@H](CN(C)C(=O)c2ccccc2)[C@@H](C)CN([C@H](C)CO)C(=O)c2cc(NC(=O)NC3CCCCC3)ccc2O1 | . | . | -0.8 | . | . | -5.6% | 0.6%
Cc1ccc(CNC(=O)CCS(=O)(=O)c2ccc3c(c2)CC(C)N3C(=O)C2CC2)cc1 (stereo not given) | 20.6% | ? | 1.2&1.2 | 6.1 | 1.2 | -0.2%&-2.0% | -18.1%
CC12CCC(=O)C=C1C(F)CC1C2C(O)CC2(C)C1CCC2(O)C(=O)CO (stereo not given) | . | 7.5% | 2.2 | . | . | . | 8.4%
O=C(NCCCN1CCOCC1)C(=O)NCc1ccc(Cl)cc1 | 6.6% | 9.5% | -5.3 | 8.2 | 0.9 | -2.0% | 9.9%[15.4 µM]
O=Cc1c(Cl)[nH]c(=O)n1-c1ccccc1 | -12.0% | -4.0% | 21.3 | 8.1 | -7.1 | . | 6.8%[15.4 µM]
O=C(C1CCN(S(=O)(=O)c2cnc[nH]2)CC1)N1CCN(c2ccc([N+](=O)[O-])cc2)CC1 | 2.7% | 11.5% | 8.6 | 20.9 | 0.6 | -2.0% | ?
Cc1ccc(C2CC(=O)C=C(O)C2)cc1 (stereo not given) | -4.2% | 3.4% | -24.7 | 15.8 | 2.7 | 8.2% | ?
CCOc1ccc(-c2cc(C(=O)NCCCn3ccnc3)c3ccccc3n2)cc1 | 5.3% | 2.3% | 35.8 | -1.3 | 0.5 | 4.1% | -4.3%
CCc1cccc(C)c1NC(=S)N(Cc1cccnc1)Cc1ccco1 | -1.2% | -0.1% | -10.9 | -3.8 | 6.0 | ? | -45.2%
C[C@H](CO)N1C[C@H](C)[C@@H](CN(C)C(=O)c2ccccc2)Oc2cc(C#C[C@@H](C)O)ccc2S1(=O)=O | . | . | -4.6 | . | . | -0.1% | -53.9%
Cc1ccc(Cc2c(C)nc3nc(SCC(=O)NCCCN4CCCC4)nn3c2C)cc1 | -13.2% | 5.9% | 0.7 | -0.8 | 2.2 | . | -6.2%
Cc1oc(-c2ccccc2Cl)nc1CS(=O)(=O)CC(=O)NC(C)c1ccccc1 (stereo not given) | 0.9% | -14.0% | -2.3&-8.9 | 18.3 | 0.5 | 0.0%&0.4% | -7.7%
COC(=O)c1cc(S(=O)(=O)NCCc2sccc2C)c[nH]1 | 0.6% | 6.2% | 25.0 | 16.0 | . | -2.1% | 3.8%
CCOc1ccc(C(=O)NC(=S)Nc2cccnc2)cc1 | ? | 12.2% | 7.5 | -10.6 | -1.1 | -16.8% | -21.4%
Cc1ccccc1NC(=O)C(C)N1C(=O)c2ccccc2C1=O (stereo not given) | 24.1% | 7.3% | 5.0 | -13.7 | -1.1 | . | -18.3%
COc1cc2nc(N(CCCN(C)C)C(=O)c3ccc(S(=O)(=O)N4CCc5ccccc54)cc3)sc2cc1OC | . | ? | -19.6 | 5.1 | . | . | -5.8%[15.4 µM]
CCCNC(=O)CSc1nc2ccc(OCC)cc2s1 | 6.0% | 6.4% | 1.7 | -2.7 | -3.3 | 1.0% | 7.4%
CCOc1ccc(NC(=O)c2cnc3scc(C)n3c2=O)cc1 | -0.6% | 1.7% | -13.1 | 18.3 | 0.7 | -1.2% | ?
OCCNC(=S)Nc1ccc2nsnc2c1 | -38.8% | -2.6% | -0.7 | -0.1 | -6.3 | 2.0% | -1.7%
CCOc1ccc(C(=O)NN2C(=O)C3C4C=CC(O4)C3C2=O)cc1 (stereo not given) | 28.2µM* | 2.1% | -0.1 | 8.0 | 1.4 | 0.4% | 0.0%
Cc1ccccc1NC(=O)CSc1ccc(-c2ccco2)nn1 | 22.4µM* | -17.9% | -0.7 | 25.3 | 1.4 | -21.1% | -9.3%
CC(=O)N/C(=C\c1ccccc1)C(=O)OC(C)C(=O)NCc1ccccc1 (stereo not given) | . | 4.5% | 36.9 | -3.0 | . | -1.8% | 5.9%[15.4 µM]
COc1ccc(C(=O)C2CCCN(C(=O)CSC)C2)cc1OC (stereo not given) | 7.2% | 6.4% | 13.4 | -1.4 | 0.5 | -5.3% | -6.9%
CCOc1c(Br)cc(C(N)=O)cc1OC | 3.3% | 2.9% | -17.4 | 3.7 | 1.9 | -1.0% | -33.9%[inhibitor]
CCC(CC)c1nnc(NC(=O)C2CC(=O)N(CCc3ccc(OC)c(OC)c3)C2)s1 (stereo not given) | . | 1.0% | 10.8 | -2.3 | . | 5.0% | -6.2%[15.4 µM]
Cc1[nH]c2ccc3c(ncn3CCC#N)c2c1C | -6.8% | -7.1% | 8.1 | 10.8 | -5.2 | ? | -4.3%
CCc1ccc(C2=NNC(=Nc3cccc(S(=O)(=O)N(C)C)c3)SC2)cc1 | 70.8µM* | 7.8% | 6.9 | -1.1 | 1.5 | -2.7% | 6.9%

Rows are unselected. Share with any hit: about 4.9%.
